Bioassay records (PubChem)
FGF22 binding: FGF22 (human) thermal shift binding. recombinant FGF22 thermal shift, SYPRO orange fluorescence; percent of sucrose octasulfate shift, DMSO zero. AID 651658. 340,000 tested, 1.5% active. calls only at 9.99 µM;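 active = melting point raised past a set limit in the mean and every replicate; three in four hits are not shown here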
Target sequence (Q9HCT0 whole entry, looked up): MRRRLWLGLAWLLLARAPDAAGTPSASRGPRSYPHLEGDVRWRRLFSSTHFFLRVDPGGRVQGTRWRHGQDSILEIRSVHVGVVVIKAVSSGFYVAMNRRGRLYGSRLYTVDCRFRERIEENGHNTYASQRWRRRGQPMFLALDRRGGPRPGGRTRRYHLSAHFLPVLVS
MLL AF4-AF9 inh: inhibitors of human MLL-AF4/AF9 interaction; P42568; AlphaScreen, biotin-AF4 peptide binding to FLAG-AF9; inhibition, % at 10 µM; 350,000 tested, 0.47% active; AID 651704;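 active = every replicate reaching a set inhibition limit, whatever the replicate mean, cut at about 25% in these data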;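 also: 0% = plate neutral control median and 100% = total signal loss; the record names both 10 and 1 µM as test concentration; the first replicate is given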
Target sequence (P42568 whole entry, looked up): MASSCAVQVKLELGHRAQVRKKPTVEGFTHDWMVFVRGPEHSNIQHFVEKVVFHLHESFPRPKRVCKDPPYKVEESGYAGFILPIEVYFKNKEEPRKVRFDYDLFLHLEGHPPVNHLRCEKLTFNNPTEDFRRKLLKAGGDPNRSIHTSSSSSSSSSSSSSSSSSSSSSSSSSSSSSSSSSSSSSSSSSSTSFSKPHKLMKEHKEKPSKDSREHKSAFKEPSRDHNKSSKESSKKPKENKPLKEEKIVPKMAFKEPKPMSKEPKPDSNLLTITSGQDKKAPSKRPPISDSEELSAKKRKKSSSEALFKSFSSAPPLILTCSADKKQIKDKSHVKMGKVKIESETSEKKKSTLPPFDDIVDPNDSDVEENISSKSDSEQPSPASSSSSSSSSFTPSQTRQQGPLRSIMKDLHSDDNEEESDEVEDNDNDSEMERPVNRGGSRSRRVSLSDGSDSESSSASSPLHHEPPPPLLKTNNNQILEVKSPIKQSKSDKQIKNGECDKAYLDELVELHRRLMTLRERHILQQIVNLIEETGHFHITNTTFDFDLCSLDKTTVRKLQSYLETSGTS
* = called active by the depositor; i = inactive. An excerpt. The share of hits here may be higher or lower than overall.

Structure | FGF22 binding | MLL AF4-AF9 inh
Cc1ccc2nc(-c3ccc(Br)cc3)cc(C(=O)NCC3CCCO3)c2c1 (centres undefined) | i | -3.9
Clc1ccc(-c2cc3nc(NCc4cccc(Cl)c4)ccn3n2)cc1 | i | -0.5
CC1(C(=O)Nc2ccc3c(c2)OCO3)CCN1C(=O)C1CCCCC1 (centres undefined) | i | -6.0
CCOC1=C2[C@@H](CN(S(=O)(=O)c3ccc(C)cc3)[C@H]2c2ccccc2F)[C@H]2C(=O)N(CC)C(=O)[C@H]2C1 | i | 0.7
Cc1ccc(S(=O)(=O)NC2CCN(Cc3ccc(OCCO)cc3)CC2)cc1 | i | 16.1
O=C(COC(=O)c1ccc(S(=O)(=O)N2CCCCC2)cc1)NC1CCCCC1 | i | -0.4
Cc1cc(C)n(C(N)=NC(=O)c2ccccc2)n1 | i | -2.0
O=C(N1CCOCC1)C12OC3CC(CC(C3)O1)O2 | i | -1.6
COc1ccc(-c2cnc3c(c2)C(=O)N([C@H](C)CO)C[C@H](C)[C@H](CN(C)Cc2ccc(F)cc2)O3)cc1 | i | -5.4
C=CCOC(=O)[C@@H]1[C@H]2C(=O)O[C@H](c3ccccc3)[C@H](c3ccccc3)N2[C@H](c2ccc(OCCOC(=O)[C@@H]3C[C@@H]4C(=O)N5CCC[C@H]5C(=O)N4[C@@H]3c3ccc(O)cc3)cc2)[C@@]12C(=O)Nc1ccc(I)cc12 | i | -0.3
O=C1CSC(c2ccccc2)N1c1ccccc1 (centres undefined) | i | -5.4
O=c1n(-c2ccccc2)c(=O)n2n1CC(COc1ccccc1)=C1[C@@H](CCc3ccccc3)OB(O)C[C@@H]12 | i | -2.5
CCOC(=O)[C@]12CCC=C1N(CCC1=CCCCC1)C(=O)[C@H](CC(=O)N1CCN(C(=O)c3ccco3)CC1)C2 | i | 1.4
O=C(C1CCCC1)N1CCCCN2[C@H](CO)[C@H](c3ccc(-c4cccc(F)c4)cc3)[C@@H]2C1 | i | -0.2
OCCCNc1ncnc2c1ncn2[C@H]1CN(Cc2ccco2)C[C@@H](CO)O1 | i | -9.3
Cc1ccccc1-c1ccccc1[C@H]1[C@@H](C#N)N(C(=O)c2ccccc2)[C@@H]1CO | i | 7.4
Oc1c(Br)cc(Br)c2cccnc12 | i | -3.6
CCCCCCSc1ccc(-c2nc3ccc(C)cn3c2NCCCC)cc1OC | i | 7.2
COC(=O)c1cccc(NC(=O)/C(=C\c2ccco2)NC(=O)c2ccco2)c1 | i | 2.5
CCCCN1C(=O)C(CC(=O)NC2CCCC2)CC(C(=O)N2CCCCCC2)=C1C (centres undefined) | i | -2.3
COc1ccc([Si](C)(C)[C@H]2[C@H](CCn3cc([C@H](O)c4ccccc4)nn3)O[C@@]3(C(=O)N(C)c4c(Br)cc(C)cc43)[C@@H]2C)cc1 | i | 1.5
CC1(C(=O)Nc2ccc3nc[nH]c3c2)CCN1C(=O)C/C=C/c1ccccc1 (centres undefined) | i | 0.0
O=C(C1=C[C@@H](C2CC2)C[C@@H](OCc2ccc(CO)cc2)O1)N1CCCCCCC1 | i | -1.1
Cn1c(=NN=Cc2ccccc2OCCO)sc2ccccc21 | i | 2.2
CC(C)(C(=O)N1CCC1(C)C(=O)NS(=O)(=O)c1ccc(Cl)s1)c1ccccc1 (centres undefined) | i | -0.5
Cc1ccsc1C(=O)N1CCC1(C)C(=O)Nc1ccc2c(c1)OCCO2 (centres undefined) | i | -0.2
COC(=O)C1(C(=O)OC)C/C=C\CCN(S(=O)(=O)c2ccccc2[N+](=O)[O-])CC1 | i | -1.0
O=C(C1CCCC1)N1CCCCN2[C@H](C1)[C@H](c1ccc(C#CC3(O)CCCC3)cc1)[C@@H]2CO | i | -2.7
O=C(C1CCC1)N1CCCCN2[C@H](CO)[C@H](c3ccc(C#CC4CCCC4)cc3)[C@@H]2C1 | i | -0.2
Cc1nc(S(=O)(=O)N[C@@H]2CCCN(Cc3cccc(OCCO)c3)C2)cn1C | i | 14.5
Nc1ccc(C=Cc2ccc(N)cc2)cc1 | i | 4.7
CCC(=O)N1C[C@H](O)COC[C@H]2O[C@@H](CC(=O)NC)CC[C@@H]21 | i | -5.0
C=CCNC(=O)[C@H]1[C@@H]2C(=O)O[C@@H](c3ccccc3)[C@@H](c3ccccc3)N2[C@@H](c2ccc(O)cc2)[C@]12C(=O)Nc1ccc(C#CC3=CCCCC3)cc12 | i | 0.2
O=C(CC[C@H]1O[C@@H](n2ccc(=O)[nH]c2=O)[C@H](O)[C@@H]1O)NCC1CCCO1 (some centres undefined) | i | -0.6
CC(C)C[C@@H]1NC(=O)[C@H]2C[C@@H](C(=O)NCCCCCNC(=O)CS)[C@@H](c3cccc(OCCO)c3)N2C1=O | i | -3.0
CN(C)C(=O)c1cccc(-c2ccc([C@@H]3[C@@H](CO)N4CCCCN(C(=O)C5CCCC5)C[C@@H]34)cc2)c1 | i | -5.4
CN1CCC[C@@H]1CCO[C@](C)(c1ccccc1)c1ccc(Cl)cc1 | i | 5.2
Cc1cnc(C)c(Nc2nc(C(N)c3ccccc3)cs2)n1 (centres undefined) | i | 8.2
COc1c2c(cc3c1c(=O)c1ccccc1n3C)OCO2 | i | -3.7
COc1cc(/C=C(\C#N)C(=O)Nc2nnc(C(F)(F)F)s2)ccc1OCc1ccc(C(F)(F)F)cc1C(F)(F)F | i | -5.0

Part of the list above, as labelled records.
CC(C)C[C@@H]1NC(=O)[C@H]2C[C@@H](C(=O)NCCCCCNC(=O)CS)[C@@H](c3cccc(OCCO)c3)N2C1=O
  FGF22 binding: i
  MLL AF4-AF9 inh: -3.0

O=C(CC[C@H]1O[C@@H](n2ccc(=O)[nH]c2=O)[C@H](O)[C@@H]1O)NCC1CCCO1 (some centres undefined)
  FGF22 binding: i
  MLL AF4-AF9 inh: -0.6

CCC(=O)N1C[C@H](O)COC[C@H]2O[C@@H](CC(=O)NC)CC[C@@H]21
  FGF22 binding: i
  MLL AF4-AF9 inh: -5.0

C=CCNC(=O)[C@H]1[C@@H]2C(=O)O[C@@H](c3ccccc3)[C@@H](c3ccccc3)N2[C@@H](c2ccc(O)cc2)[C@]12C(=O)Nc1ccc(C#CC3=CCCCC3)cc12
  FGF22 binding: i
  MLL AF4-AF9 inh: 0.2

New compounds follow.
Structure | FGF22 binding | MLL AF4-AF9 inh
O=C1O[C@@H](c2ccccc2)[C@@H](c2ccccc2)N2[C@@H](c3ccc(OCCO)cc3)[C@]3(C(=O)Nc4ccc(C#CC5=CCCCC5)cc43)[C@@H](C(=O)N3CCN(c4ncccn4)CC3)[C@H]12 | i | -1.4
CCc1nc2c(OCc3ccccc3C)cccn2c1N(C)C(=O)CC(C)C | i | 2.8
O=C(NCCCN1CCOCC1)C(=O)NCC1OCCN1S(=O)(=O)c1ccc(Cl)cc1 (centres undefined) | i | 0.7
CCCCn1nc(C(=O)NC2CCCCC2)c2ccccc2c1=O | i | -2.7
OCCNc1ncnc2c1ncn2[C@H]1CN(Cc2ccco2)C[C@@H](CO)O1 | i | -0.5
COc1ccc(Cl)cc1C=CC=Nc1ccccc1O | i | 0.4
Cc1ccccc1-c1csc(C(O)c2ccccc2)n1 (centres undefined) | i | -4.9
CCCC[C@@H]1CNC(=O)C(=O)N1CCc1cccc(F)c1 | i | -2.8
C[C@@H](NC(=O)[C@@H]1CCCN1C(=O)[C@@H]1CCCN1C(=O)c1ccccc1)c1ccccc1 | i | -2.9
CCCCN1C(=O)C(CC(=O)NC2CCCCC2)CC(C(=O)N2CCCCCC2)=C1C (centres undefined) | i | -1.2

Part of the list above in order of molar mass, falling.
Structure | FGF22 binding | MLL AF4-AF9 inh
C[C@@H](NC(=O)[C@@H]1CCCN1C(=O)[C@@H]1CCCN1C(=O)c1ccccc1)c1ccccc1 | i | -2.9
CCc1nc2c(OCc3ccccc3C)cccn2c1N(C)C(=O)CC(C)C | i | 2.8
OCCNc1ncnc2c1ncn2[C@H]1CN(Cc2ccco2)C[C@@H](CO)O1 | i | -0.5

(further entries)
Structure | FGF22 binding | MLL AF4-AF9 inh
COc1ccc(OC)c(NC(=O)C2(C)CCN2Cc2ccccc2Cl)c1 (centres undefined) | i | 4.1
CC(=O)N(C)C[C@H]1Oc2ncc(C#CCc3ccccc3)cc2C(=O)N([C@H](C)CO)C[C@H]1C | i | -2.2
COC(=O)[C@H](CC(C)C)NC(=O)CC[C@H]1O[C@@H](n2ccc(=O)[nH]c2=O)[C@H](O)[C@@H]1O | i | -3.7
C[C@H]1CN([C@@H](C)CO)C(=O)Cc2cc(NS(=O)(=O)c3cccs3)ccc2O[C@H]1CN(C)Cc1ccccc1 | i | -5.3
COc1ccc(COCC23N=C4SCCCN4[C@H](c4ccccc4O2)[C@H]3COC(=O)c2ccccc2)cc1 | i | 6.4
O=C1NC(Cc2ccccc2)c2nc3ccccc3c(=O)n2-c2ncccc21 (centres undefined) | i | -5.3
Cc1sc2ncnc(SCC(=O)NC3CCS(=O)(=O)C3)c2c1C (centres undefined) | i | -4.8
O=C1CC[C@@H]2c3[nH]c4ccc(Br)cc4c3CCN12 | i | 3.2
C=C1CC(/C=C/c2cc(OC)c(OC)c(OC)c2)OC1=O (centres undefined) | i | -0.7
C[C@H]1CN([C@@H](C)CO)C(=O)Cc2cc(NC(=O)Nc3ccc(C(F)(F)F)cc3)ccc2O[C@H]1CN(C)CC1CCCCC1 | i | -1.6

Additional entries follow:
Compound	FGF22 binding	MLL AF4-AF9 inh
CCCN(C)C[C@H]1Oc2ncc(-c3ccccc3)cc2C(=O)N([C@@H](C)CO)C[C@@H]1C	i	-2.9
CCCc1nc2ccc(C(=O)OC)cn2c1Cc1ccc(C)cc1	i	-0.1
Cc1cn([C@H]2C[C@H](O)[C@@H](CNCc3cnc(N4CCOCC4)nc3)O2)c(=O)[nH]c1=O	i	-0.9
COCCCNC(=O)[C@@]1(Cc2ccccc2CN=[N+]=[N-])N=C(c2ccc(OCCCO)cc2)O[C@H]1c1ccccc1	i	0.6
CCCC[C@H]1OB(O)C[C@H]2C1=C(COc1ccccc1)C[C@H]1C(=O)N(Cc3ccccc3)C(=O)[C@H]12	i	0.7
CCOC(=O)[C@]12CCC=C1N(Cc1cccc3ccccc13)C(=O)[C@H](CC(=O)NCC1CCCCC1)C2	i	-0.9
COc1ccc(S(=O)(=O)N(C)C[C@H]2OCCCC[C@H](C)Oc3ccc(NS(=O)(=O)c4c(C)noc4C)cc3C(=O)N([C@@H](C)CO)C[C@@H]2C)cc1	i	0.9
CC(C)CCCCCCCCCCCCC(=O)NCC(=O)NC1C(C)OC(Nc2ncnc3nc[nH]c23)C(O)C1O (centres undefined)	i	-1.8
COC(=O)[C@@]1(CCS(=O)(=O)c2ccccc2)N=C(c2ccc(OCCCO)cc2)O[C@H]1c1ccccc1	i	3.2
COc1ccc(/C=C(/NC(=O)c2ccco2)C(=O)NCc2ccco2)cc1	i	-11.1
Cc1ccc(CNC(=O)C2(C)CCN2C(=O)Cc2ccc(-c3ccccc3)cc2)cc1 (centres undefined)	i	1.2
Cc1cccc(NC(=O)CSc2nc3ccccc3c(=O)n2C)c1C	i	0.7
CCCC(O)C#Cc1cnc2c(c1)C(=O)N([C@H](C)CO)C[C@H](C)[C@H](CN(C)C(=O)Nc1cccc3ccccc13)O2 (some centres undefined)	i	-3.6
CCOC(=O)[C@]12CCCC=C1N(Cc1ccc(Cl)cc1Cl)C(=O)[C@H](CC(=O)NCCCCc1ccccc1)C2	i	-4.3
CC(C)C1C(=O)N(Cc2cn(CCC3OCCO3)nn2)CCS(=O)(=O)N1Cc1ccc(-c2ccc(Cl)cc2)cc1 (centres undefined)	i	-1.9
CN(C)CC(=O)N[C@H]1C[C@@H]2O[C@@H](CO)CC[C@@H]2O[C@@H]1CCc1ccc(-c2ccc(F)cc2)cc1	i	2.8
CCO[C@H]1OC(C(=O)NCc2ccccc2)=C[C@@H](c2csc3ccccc23)[C@@H]1CCCO	i	-3.4
S=C(NC1CCCCC1)N1CCC(C2C=NC=N2)CC1 (centres undefined)	i	-0.9
O=c1[nH]c(=S)[nH]c2c1C(c1ccc(F)cc1)OC(CCC(F)(F)F)C2 (centres undefined)	i	-1.7
COc1ccc(C2(OC)Oc3cc(OC)ccc3C(=O)C2(O)OC)cc1 (centres undefined)	i	-0.5
C[C@H]1CN([C@@H](C)CO)C(=O)c2cc(C3=CCCCC3)cnc2O[C@H]1CN(C)Cc1ccccc1	i	-0.9
C[C@H]1CN([C@@H](C)CO)C(=O)Cc2cc(NC(=O)Nc3ccccc3)ccc2O[C@@H]1CN(C)S(C)(=O)=O	i	2.4
CCC(=O)Nc1ccc2c(c1)C(=O)N(C)[C@H]1CC[C@@H](CC(=O)NC3Cc4ccccc4C3)O[C@H]1CO2	i	-2.1
O=C1C[C@@](C(=O)NCC(F)(F)F)(c2ccc([N+](=O)[O-])cc2)[C@@H](c2ccc(CO)cc2I)N1C1CCCCC1	i	8.3
Cc1csc(-c2cc(C(=O)NCc3cc(C(F)(F)F)cc(C(F)(F)F)c3)n[nH]2)c1	i	0.4
O=[N+]([O-])c1ccc(C=NN2CCOCC2)s1	i	9.1
CO[C@@H]1CN(C)C(=O)c2cc(NC(=O)c3ccc(-c4ccccc4)cc3)ccc2OC[C@H](C)NC[C@@H]1C	i	4.9
C=CCNC(=O)[C@@H]1[C@H]2C(=O)O[C@H](c3ccccc3)[C@H](c3ccccc3)N2[C@H](c2ccc(OCCO)cc2)[C@@]12C(=O)Nc1ccc(C#CCNC(N)=O)cc12	i	-0.5
COc1ccc([Si](C)(C)[C@@H]2[C@@H](CCO)O[C@]3(C(=O)N(Cc4ccccc4)c4ccc(N5CCCCC5=O)cc43)[C@H]2C)cc1	i	2.8
COc1ccc(CN2CCC[C@]3(N[C@H](c4ccc(C)cc4)[C@@H]4C(=O)N(Cc5ccccc5)C(=O)[C@@H]43)C2=O)cc1	i	4.0
CCCCCCCCN1C(=O)[C@H](CC(=O)N2CCOCC2)C[C@@]2(C(=O)OC)CCCCC=C12	i	0.5
c1ccc(COc2ncnc3c2ncn3CCCNCc2ccc3c(c2)OCO3)cc1	i	1.2
